Assay outcomes as filed in PubChem BioAssay.
VACV mCherry inh = inhibitors of vaccinia virus infection (mCherry reporter signal) | actives 0.63% (n = 310,000) | AID 720579 | Potency, µM (doses to about 36.5 µM), inactives show top-dose activity change, negative = inhibition, most hits filed as inhibitors | Vaccinia virus mCherry reporter infection, fluorescence; about a quarter of the inactives have no number; active = well fitted inhibition curve with a large enough effect; inconclusive = small, poorly fitted or top-dose-only effect; inactive = no such curve, though single readings can be large or run the other way; tested in A549 cells; further: nearly all actives have a fitted effect of over 35% in size; inactives centre near -10
Vaccinia Venus = vaccinia inhibition (Venus reporter); Potency, µM (series often up to 36.5 µM), without a hit: at the highest dose activity change, negative = inhibition, hits mostly inhibitors; actives 0.46% (n = 330,000); Vaccinia virus Venus reporter expression, fluorescence; active means well fitted inhibition curve with a large enough effect; inconclusive means small, poorly fitted or top-dose-only effect; inactive means no such curve, though single readings can be large or run the other way; tested in A549 cells; further: nearly all actives have a fitted effect of over 30% in size; inactives centre near -10
* marks the source's active call; other numbers are inactive results; i = inactive; u = inconclusive; x = no result given; & = joins results of further samples. On the % scale 0 is the no-effect control and ±100 the full control effect; potency means the concentration at half of the fitted maximal effect.

Results follow in this order: VACV mCherry inh	Vaccinia Venus
- Cc1cc(C)cc(N2C(=O)NC(=O)/C(=C\c3cccn3-c3ccccc3)C2=O)c1
    u	14µM*
- O=C(O)Cc1n[nH]c(=O)c2ccccc12
    -11%	-10%
- COC(=O)C1=C(C)N(Cc2ccc(C)cc2)C(=O)/C1=C\c1ccc(O)c(OC)c1
    x	u
- CCCCN(C)C(=O)c1sc(=O)n(Cc2c(C)cccc2C)c1C
    i	0%
- NC(=O)[C@H]1CC2(CC(c3cccc(NC(=O)COc4ccc(Cl)cc4)c3)=NO2)CN1C(=O)C(c1ccccc1)c1ccccc1 (some centres undefined)
    u	u
- CCOc1ccc(NC(=O)c2cc(S(=O)(=O)N3CCN(c4ccccc4F)CC3)ccc2F)cc1
    -11%	-16%
- COc1ccc(S(=O)(=O)N(C)C[C@@H]2OCc3cnnn3CCCC(=O)N([C@@H](C)CO)C[C@H]2C)cc1
    i	1%
- CCOc1ccccc1-n1cnc(C#N)c1N
    i	-7%
- CCOC(=O)C(C)Sc1nc2c([nH]c3ccccc32)c(=O)n1C (centres undefined)
    0%	-8%
- O=C(COC(=O)CCc1ccc(S(=O)(=O)N2CCOCC2)cc1)Nc1ccccc1[N+](=O)[O-]
    i	-6%
- Cn1c(O)c(N=Nc2ccccc2)c2ccccc21
    -5%	-6%
- CCOc1ccc(S(=O)(=O)NCCC(=O)NC2CCN(Cc3ccccc3)CC2)cc1
    -14%	-27%
- N#C/C(=C\c1ccccc1Cl)C(=O)NC(=O)Oc1ccccc1
    -7%	-11%
- CCOc1ccccc1NC(=O)CSc1nnc(CNC(=O)COc2ccc(Cl)cc2)o1
    -14%	-2%
- Cc1ccc(C)c(N2CCN(C(=O)CC3Sc4ccccc4NC3=O)CC2)c1 (centres undefined)
    x	u
- CC(=O)Nc1ccc(NC(=O)C(C)OC(=O)COc2ccc(Nc3ccccc3)cc2)cc1 (centres undefined)
    -14%	-3%
- COc1ccc(C(=O)OCC(=O)NC(=O)CCSc2ccccc2)cc1
    i	1%
- Cc1ccc(C(=O)N/C(=C\C=C\c2ccccc2)C(=O)NCc2ccco2)cc1
    i	-9%
- O=C(O)c1ccccc1NC(=S)NC(=O)c1sc2ccccc2c1Cl
    i	-15%
- Cc1nc2c(sc3nc4c(cc32)COC(C)(C)C4)c(=O)o1
    i	-1%
- O=C(c1cncc(Br)c1)N1CCc2ccccc2C1
    x	-5%
- CC(C)(C)OC(=O)[C@H](Cc1ccccc1)NC(=O)c1nc[nH]c1C(=O)N[C@@H](CCCCN)C(=O)OC(C)(C)C
    i	-5%
- CCn1nc(CC(=O)Nc2nnc(CC(=O)N3CCOCC3)s2)c2ccccc2c1=O
    x	-20%
- O=C(COC(=O)CSc1ccc(Cl)cc1)NCCc1ccccc1
    -3%	2%
- O=C(NCc1nc(-c2ccc(Cl)cc2)no1)c1ccco1
    6%	20%
- C=C(C)Cn1c(SCC(=O)c2ccc(Br)cc2)nc2sc3c(c2c1=O)CCCC3
    2%	5%
- CCCOc1ccc(C(=O)Nc2ccc(C)cc2[N+](=O)[O-])cc1
    -17%	-1%
- COc1ccc(N(CC(=O)NCc2ccc3c(c2)OCO3)S(=O)(=O)c2c(C)nn(C)c2C)cc1
    -17%	3%
- CCCCCCSc1ccc(-c2nc3ccc(C)cn3c2NCc2ccccc2)cc1
    u	-6%&-10%
- COC(=O)/C(=C\Nc1ccc(Cl)c2ccccc12)c1ncc(C(F)(F)F)cc1Cl
    0%	-2%
- COc1ccc(-c2cc(-c3ccccc3O)[nH]n2)cc1
    x	-28%
- CCOC(=O)C1=C(C)Nc2ccccc2N=C1NC(=O)c1cccc(S(=O)(=O)N(C)C)c1
    i	-21%
- CC(NC(=O)C1CCN(Cc2ccccc2)CC1)c1cccc2ccccc12 (centres undefined)
    16%	5%
- CCN(CC(=O)Nc1ccccc1C(=O)OC)S(=O)(=O)c1ccc(OC)cc1
    x	-24%
- CSc1ncnc2c1ncn2CCCNc1ccc(C)c(C)c1
    -20%	-22%
- CCOc1cc(C(=O)NCc2nc(-c3cccc(C)c3)no2)cc(OCC)c1OCC
    -15%	-14%
- Cc1cccc(OCC(=O)Nc2ccc3c(c2)nc(CCNC(=O)c2ccco2)n3C)c1
    -13%	-8%
- O=C(NCCSc1ccccc1)c1ccco1
    -12%	-5%
- COc1ccc(-n2nc3cc(C)c(NC(=O)c4ccc(-c5ccc(Cl)cc5)o4)cc3n2)cc1
    7%	3%
- Fc1cccc2sc(Nc3nc4ccccc4s3)nc12
    -6%	-19%
- CCOC(=O)c1c(NC(=O)C(=O)N/N=C(\C)c2ccc(OC)cc2)sc2c1CCCCC2
    i	-6%
- CC1CC(C)(C)CC2(C1)NC(=O)N(CC(=O)NCCc1ccc3c(c1)OCCO3)C2=O (centres undefined)
    -15%	-10%
- COc1ccc(NC(=S)N(CCCN2CCCC(C)C2)Cc2cccs2)cc1 (centres undefined)
    -14%	-20%
- CCS(=O)(=O)NCC(c1ccco1)N1CCN(c2ccccc2)CC1 (centres undefined)
    i	-2%&-13%
- CC(C)CC(CC(C)C)=NNC(=O)c1ccc2c(c1)OCO2
    -16%	-23%
- Cc1nc2c(o1)CCc1ccccc1C2N1CCN(C)CC1 (centres undefined)
    -14%&-22%	-10%&-5%&-19%
- CSc1cccc(NC(=O)CC(c2cccs2)N2Cc3ccccc3C2=O)c1 (centres undefined)
    -13%	0%
- Nc1nnc2cc(F)ccc2n1
    u	6%
- O=C(CN1C(=O)NC(Cc2ccccc2)C1=O)Nc1ccccc1 (centres undefined)
    x	3%
- CCCCC(=O)Nc1ccc(N2CCN(S(C)(=O)=O)CC2)cc1
    i	-8%
- CCCCCC(=O)N1C[C@H](n2cc(C3CC3)nn2)[C@@H](O)C[C@@H]1c1ccc(OC)cc1
    -19%	-3%
- O=C(COc1ccccc1Cl)N1CCN(CCc2ccccn2)CC1
    -8%	4%
- COc1cc(OC)cc(C(=O)Nc2ccc(-n3cnnn3)c(C)c2)c1
    i	-13%
- COc1ccc(CNC(=O)c2cc3c(=O)[nH]c4ccccc4c3s2)cc1
    -12%	-5%
- O=C(NC1CC1)C1=C[C@@H](c2ccccc2)C[C@@H](OCCCCO)O1
    i	-13%
- COc1ccccc1C(=O)N/N=C(\C)c1ccc(NC(=O)C2CC2)cc1
    i	-5%
- CCOC(=O)c1ccc(S(=O)(=O)N2CCN(C3CCCC3)CC2)cc1
    -1%	-5%
- COCCCN1C(=O)c2ccc(C(=O)Nc3cccc(OC)c3)cc2C1=O
    -14%	-8%
- O=C(CN1CCC(n2nnc3cc(C(F)(F)F)ccc32)CC1)Nc1ccc2c(c1)CCC2
    x	-23%
- O=C(O)CNc1ccc(S(=O)(=O)C(F)(F)F)cc1[N+](=O)[O-]
    -32%	-17%

Continued.
Results follow in this order: VACV mCherry inh	Vaccinia Venus
- Cc1ccc(S(=O)(=O)N2CCCCC2)cc1NC(=O)COC(=O)c1ccc(O)cc1
    -5%	-14%
- C[C@H](CO)N1C[C@H](C)[C@@H](CN(C)C(=O)Nc2ccc(F)cc2)Oc2ccc(NS(C)(=O)=O)cc2C1=O
    -7%	-6%
- CCOC(=O)c1[nH]c2cc3c(cc2c1NC(=O)CN1CCC2(CC1)OCCO2)OCO3
    -19%	-10%
- CC(=O)c1cccc(NC(=O)CSc2nc3c(c(=O)[nH]2)CCC3)c1
    -5%	3%
- CCCCN1C[C@H](c2ccc(OC)cc2)[C@@H](CC(=O)Nc2ccc(Br)cc2)C1=O
    i	-26%
- CCN(CC)S(=O)(=O)c1cccc(-c2nnc(SCC(=O)NC)n2CCc2ccccc2)c1
    x	-13%
- O=C(c1cc(C2CC2)nn1-c1ccccc1)N1CCN(c2ccc(O)cc2)CC1
    -10%	-28%
- O=C(NCCS(=O)(=O)N1CCN(c2ccc(F)cc2)CC1)c1ccccc1Br
    -12%	-8%
- O=C(NC1CC1)C1CCN(S(=O)(=O)c2cc(Cl)ccc2Cl)CC1
    i	-14%
- OCCSc1nc(-c2ccccc2)nc2c1CCC2
    -14%	-24%
- COc1cc(C(=O)NCC(c2ccccc2)N(C)C)ccc1OCC(=O)N1CCOCC1 (centres undefined)
    -7%	-5%
- CCCN(CCC)CCNC(=O)c1cn(C)c(=O)c2c1c1ccccc1n2C
    -21%	-9%
- COC(=O)N/N=C(\C)c1ccccc1OC(F)F
    -15%	-10%
- Cc1cc2ncn(/N=C/c3ccc([N+](=O)[O-])s3)c2cc1C
    u	u
- Cc1noc(C)c1NC(=O)Nc1cccc2c1O[C@H](CN(C)S(C)(=O)=O)[C@@H](C)CN([C@H](C)CO)C2=O
    -14%	-4%
- CCOC(=O)c1cnc2c(ccc3ccccc32)c1Nc1cccc(OC)c1
    -19%	0%
- Cc1ccc(Nc2nc(N)c([N+](=O)[O-])c(N3CCC(C)CC3)n2)cc1C
    -4%	-6%
- CC(=O)N1CCCc2cc(S(=O)(=O)N3CCCC(C(=O)Nc4cc(C)ccc4C)C3)ccc21 (centres undefined)
    -14%	-7%
- CNC(=O)C(NC(=O)CNC(=O)c1ccc(Cl)cc1)C(C)(C)C (centres undefined)
    -5%	-10%
- Cc1ccc2nc(-c3ccc(NC(=O)COC(=O)c4ccc([N+](=O)[O-])o4)cc3)sc2c1
    i	-22%
- O=C1N[C@H]2CC=C[C@H]2Nc2ccccc21
    i	-29%
- CCCCN(CCCC)CCNC(=O)CSCc1ccc(C)cc1
    -15%	-16%
- C[C@@H]1CN([C@@H](C)CO)C(=O)c2cc(Br)cnc2O[C@H]1CN(C)C(=O)Cc1cccnc1
    -14%	6%
- CC1=CNC(=O)CC(C)(C)C1
    -6%	0%
- O=C(c1ccc(F)cc1)c1cccc(C(=O)c2ccc(F)cc2)n1
    i	-12%
- COc1ccc(C(=O)Nc2ccc(-c3nc4ncccc4o3)cc2C)cc1Br
    u	u
- CC1=CC(=O)C(Sc2ccc(C)cc2)=CC1=O
    -23%	-3%
- COc1ccc(C(C(=O)NCc2ccccc2)N(Cc2ccco2)C(=O)c2snc(C(N)=O)c2N)cc1 (centres undefined)
    -9%	4%
- O=S(=O)(c1ccc(Cl)c(Cl)c1)c1snnc1-c1ccccc1
    x	u
- CC(C)N(C(=O)COC(=O)c1ccc(Cl)c(S(N)(=O)=O)c1)C(C)C
    i	-7%

Of the compounds above, 2 contain a cyano group.
Results follow in this order: VACV mCherry inh	Vaccinia Venus
- CCOc1ccccc1-n1cnc(C#N)c1N
    i	-7%
- N#C/C(=C\c1ccccc1Cl)C(=O)NC(=O)Oc1ccccc1
    -7%	-11%

(list continues)
Results follow in this order: VACV mCherry inh	Vaccinia Venus
- O=C(CSc1ccc([N+](=O)[O-])cn1)Nc1ccc2c(c1)OCO2
    u	-15%
- COCC(=O)N(Cc1cc2ccc(C)cc2[nH]c1=O)c1ccc(OC)cc1
    -16%	-1%
- COc1cc2c(cc1NC(=S)NC(=O)/C=C/c1ccc(OC)c(OC)c1)oc1ccccc12
    u	-9%
- CCCc1cc(=O)[nH]c(SCC(=O)N(C)C2CCS(=O)(=O)C2)n1 (centres undefined)
    x	-10%
- OC1CCN(c2cc(-c3ccccc3)nc3cc(-c4ccc(F)cc4)nn23)CC1
    -20%	-13%
- Cc1ccc(C)c(NCCC#N)c1
    -10%	2%
- O=C(CSc1nc(Nc2ccccc2)c2ccccc2n1)c1ccc(Cl)cc1
    -3%	0%
- COc1cc(OC)cc(-c2nc3nc(C)c(CCC(=O)Nc4ccc(C)cc4)c(C)n3n2)c1
    -9%	-9%
- O=C1c2cccc(O)c2C(=O)c2c(O)cccc21
    i	0%
- FC(F)(F)c1cnc2c(-c3ccccc3)n[nH]c2c1
    -7%	-5%
- COc1cccc(OCC(Cn2c(C)nc3ccccc32)OC(C)=O)c1 (centres undefined)
    i	-7%
- Cc1ccc(N2C(=O)Nc3ccccc3S2(=O)=O)cc1Cl
    -24%	-14%
- CCN(c1ccccc1)S(=O)(=O)c1ccc(Cl)c(C(=O)NCC2CCCO2)c1 (centres undefined)
    -2%	-7%
- CCOCN(C(=O)Cn1cnc2ccccc21)c1c(C)cccc1CC
    -18%	-20%
- O=C(CSc1nnc(Cc2ccccc2)o1)NC1CCCCC1
    -2%	-13%
- COc1ccccc1N1CCN(S(=O)(=O)CCNC(=O)/C=C/c2ccc3c(c2)OCO3)CC1
    -1%	-21%
- COc1ccc(CNc2nc3ccccc3n2C)c(O)c1
    -25%	-8%
- CCN(Cc1ccccc1)S(=O)(=O)c1cc(C(=O)NC(C)C2CC3CCC2C3)ccc1OC (centres undefined)
    -3%	u
- Cc1ccc(OCC(=O)NC(=S)Nc2ccc(Br)cn2)cc1C
    i	4%
- Cc1c(O)nc(SCC(=O)Nc2ccc3c4c(cccc24)CC3)n(-c2ccccc2)c1=O
    -9%	6%
- Cc1cc(F)ccc1N1CCC(N2CCN(CCC(C)C)C(CCO)C2)CC1 (centres undefined)
    u	u

Record cards (already shown). Screens in order: VACV mCherry inh	Vaccinia Venus
`CCOCN(C(=O)Cn1cnc2ccccc21)c1c(C)cccc1CC` as listed: -18%	-20%
`FC(F)(F)c1cnc2c(-c3ccccc3)n[nH]c2c1` as listed: -7%	-5%
`CCN(Cc1ccccc1)S(=O)(=O)c1cc(C(=O)NC(C)C2CC3CCC2C3)ccc1OC` (centres undefined) as listed: -3%	u
